From PubChem BioAssay
NS1 inh = inhibitors of influenza NS1 protein function; AID 2326; S. cerevisiae slowed by influenza A NS1, growth recovery by OD600; Potency, µM (series often up to 46.1 µM), without a hit: at the top dose activity, positive = more growth; actives 0.4% (n = 270,000); active means well fitted rising curve with a large enough effect; inconclusive means small, poorly fitted or top-dose-only effect; inactive means no such curve, though single readings can be large or run the other way; further: nearly all actives have a fitted effect of over 50% in size
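S. cerevisiae expressing influenza A NS1, grown in glucose, washed, then diluted 1:100 into pH 6.0 -URA galactose medium with 23 nl compound. Growth recovery read as OD600; NS1-free strain serves as control.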
Cruzain inh noDet = inhibitors of Trypanosoma cruzi cruzain without detergent. AID 1476. Potency, µM, without a hit: max response, negative = inhibition, hits mostly inhibitors. actives 2.3% (n = 200,000). purified cruzain, Z-FR-AMC fluorescence, no detergent;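 further: plate controls were enzyme without inhibitor for no effect and buffer without enzyme for full effect; nearly all actives have a fitted effect of over 40% in size; top concentration of the series not given in the record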
Target sequence (P25779 123-467 limits assumed): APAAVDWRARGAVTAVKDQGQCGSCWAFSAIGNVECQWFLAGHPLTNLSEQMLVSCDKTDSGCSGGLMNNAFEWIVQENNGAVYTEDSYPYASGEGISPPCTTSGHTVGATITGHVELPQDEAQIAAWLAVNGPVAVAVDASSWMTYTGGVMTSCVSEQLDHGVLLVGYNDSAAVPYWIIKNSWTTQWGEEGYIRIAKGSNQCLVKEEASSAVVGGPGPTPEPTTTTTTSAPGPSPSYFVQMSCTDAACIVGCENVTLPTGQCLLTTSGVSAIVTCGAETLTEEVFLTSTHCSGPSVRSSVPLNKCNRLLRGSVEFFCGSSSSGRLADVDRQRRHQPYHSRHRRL
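Purified cruzain at 1.5 nM, pre-incubated 15 min with compound at room temperature in 100 mM sodium acetate pH 5.5, 5 mM DTT, 0.00005% Triton X-100. Reaction started with 2 uM Z-FR-AMC; AMC fluorescence increase over 60 s gives rate.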
SARS PLP yeast = SARS-CoV PLP inhibition in yeast; S. cerevisiae expressing SARS-CoV PLpro, growth rescue; control for the full effect not named in the record; Potency, µM (highest dose often 32.9 µM), for inactives: at the highest dose activity, positive = growth rescue; actives 0.19% (n = 330,000); active means well fitted rising curve with a large enough effect; inconclusive means small, poorly fitted or top-dose-only effect; inactive means no such curve, though single readings can be large or run the other way; further: 0% is about no effect; nearly all actives have a fitted effect of over 55% in size; growth read by luminescence after 48 h
2A StopGo = lowers the luciferase signal of an FMDV 2A StopGo reporter. AID 1159524. Potency, µM (series often up to 57.9 µM), inactives show at the top dose signal change, negative = less light. human cells with a luciferase reporter of 2A StopGo recoding; control for the full effect not named in the record. actives 1.2% (n = 410,000); active = well fitted falling curve with a large enough effect; inconclusive = small, poorly fitted or top-dose-only effect; inactive = no such curve, though single readings can be large or run the other way; tested in HEK293T cells; further: on the % scale 0 is the no-effect control and ±100 the full control effect; nearly all actives have a fitted effect of over 45% in size; luciferase light after 4 h
Lassa entry inh = Lassa virus entry inhibition; actives 1.2% (n = 300,000); Lassa virus pseudotype entry inhibition, cell reporter; control for the full effect not named in the record; Potency, µM (top dose mostly 37.9 µM), inactives show top-dose activity change, negative = inhibition, hits mostly inhibitors; active means well fitted inhibition curve with a large enough effect; inconclusive means small, poorly fitted or top-dose-only effect, or effect the other way; inactive means flat fitted curve, though single readings scatter; tested in HEK293 cells; further: on the % scale 0 is the no-effect control and ±100 the full control effect; nearly all actives have a fitted effect of over 50% in size; luciferase read-out
Marburg entry inh = Marburg virus entry inhibition; Marburg virus pseudotyped entry inhibition, cell reporter; control for the full effect not named in the record; about a third of the inactives were read at about 46 µM; Potency, µM (titrated, usually from 37.8 µM), for the others: at the top dose activity change, negative = inhibition, actives largely listed as inhibitors; actives 1.8% (n = 300,000); active = well fitted inhibition curve with a large enough effect; inconclusive = small, poorly fitted or top-dose-only effect, or effect the other way; inactive = flat fitted curve, though single readings scatter; tested in HEK293 cells; about a fifth of its hits are not listed in these tables; further: on the % scale 0 is the no-effect control and ±100 the full control effect; luciferase read-out
RE007 growth inh = less growth of the S. pombe RE007 Vpr strain; S. pombe RE007 Vpr strain, BacTiter-Glo ATP luminescence, 24 h; control for the full effect not named in the record; Potency, µM (top dose mostly 92.2 µM), for inactives: at the highest dose activity change, negative = less growth; actives 0.21% (n = 360,000); AID 651644; active = well fitted falling curve with a large enough effect; inconclusive = small, poorly fitted or top-dose-only effect; inactive = no such curve, though single readings can be large or run the other way;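 further: on the % scale 0 is the no-effect control and ±100 the full control effect; nearly all actives have a fitted effect of over 50% in size; the assay follows cell death caused by Vpr and the record does not say whether a fall means rescue or toxicity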
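Fission yeast RE007 carrying one integrated HIV-1 vpr copy, seeded at OD 0.01 in PMG+AL medium with 23 nL pinned compound. Grown 24 h at 30 degrees; viability read by BacTiter-Glo luminescence after 5 min.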
Cruzain Triton = inhibitors of Trypanosoma cruzi cruzain with detergent. actives 0.43% (n = 200,000). Potency, µM, for the others: max response, negative = inhibition, hits mostly inhibitors. purified cruzain, Z-FR-AMC fluorescence, 0.01% Triton;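 further: plate controls were neutral wells for no effect and buffer without enzyme for full effect; nearly all actives have a fitted effect of over 40% in size; top concentration of the series not given in the record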
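Read-out: AMC fluorescence (360 nm excitation, 450 nm emission), four reads over 2 min, first-to-third difference used. Conditions: cruzain 1.5 nM, Z-FR-AMC 2 uM, pH 5.5 acetate, 5 mM DTT, 0.01% Triton X-100.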
* marks the source's active call; other numbers are inactive results; ? = inconclusive; · = no result given; & = joins results of further samples; [ ] = remark or other dose. Unless noted, the call rests on the fitted dose curve; in most records, active means well fitted curve in the direction sought with a large enough effect; inconclusive means small, poorly fitted or top-dose-only effect, or another doubt; inactive means no such curve, though single readings can be large; an effect the other way counts as inactive or inconclusive. Potency means the concentration at half of the fitted maximal effect.

SMILES	NS1 inh	Cruzain inh noDet	SARS PLP yeast	2A StopGo	Lassa entry inh	Marburg entry inh	RE007 growth inh	Cruzain Triton
CCOC(=O)c1[nH]c2ccc(OC)cc2c1NC(=O)N1CCOCC1	8%	-5%	5%	-20%	12%	1%	5%	-5.1%
O=C(c1ccccc1)c1cc([N+](=O)[O-])ccc1N1CCCC1	2%	2%	6%	?	-9%	-43%	-6%	-17%
COC(=O)c1cc(=O)nc2sccn12	5%	5%	-1%	20%	5%	-4%	5%	1.3%
Cc1cccc(C)c1NC(=S)N(Cc1ccccc1)Cc1cccnc1	·	·	7%	0%	-19%	-17%[46.1 µM]	-8%	·
O=C(O)c1ccc(-n2c(O)c(/C=C3\C=Nc4ccccc43)c(=O)[nH]c2=O)cc1	-1%	·	4%	-7%	15%[46.1 µM]	-15%[46.1 µM]	10%	·
CC1(C)Cc2c(C#N)c(SCCOc3ccccc3)nc(N3CCOCC3)c2CO1	-6%	24%	-1%	?	-1%	?	4%	0.1%
COc1ccc(OC)c(NC(=O)CCCC(=O)NC2CCCCC2)c1	-2%	·	-5%	-3%	·	·	11%	·
Cc1cccc(C)c1NC(=O)COc1cccc(/C=N/NC(=O)C(=O)NCc2ccccc2)c1	4%	25µM*	-1%	?	-7%	6%	-8%	6.7%
CC(=O)c1cnc2nc(SCc3cccc(C)c3)nn2c1C	-7%	·	1%	26%	·	·	-13%	·
COc1ccc(S(=O)(=O)N2CCOCC2)cc1NC(=O)Cc1c(Cl)cccc1Cl	4%	-11%	-4%	21%	5%	?	0%	-1.6%
CCOC(=S)SCC(=O)Nc1nc(C)c(C)s1	-42%	·	-4%	-1%	·	·	8%	·
COc1cc(CC(NC(C)=O)C(=O)NC2CCN(C(=O)Nc3ccccc3C)CC2)cc(OC)c1 (stereo not given)	-5%	·	-1%	3%	-2%	1%[46.1 µM]	0%	·
CCOC(=O)C(CC)Sc1ccc2nnc(CCNS(=O)(=O)c3ccc(C)cc3)n2n1 (stereo not given)	·	7%	·	-1%	-11%[46.1 µM]	·	·	-2.8%
Cc1nn(Cc2c(F)c(F)c(F)c(F)c2F)c(C)c1NC(=O)c1c(-c2ccccc2)nn(-c2ccccc2)c1C	2%	?	2%	-20%	?	?	-1%	6.1%
Cc1ccc(O)c(NC(=O)c2ccc3c(c2)C(=O)N(Cc2ccco2)C3=O)c1	-35%	·	-2%	10%	·	·	3%	·
O=C(NC(=O)c1ccccc1)Nc1cccc(S(=O)(=O)N2CCCCC2)c1	0%	·	1%	4%	·	·	3%	·
CCCSc1nc2c(cnn2-c2ccc(C)c(C)c2)c(=O)[nH]1	4%	-22%	3%	-5%	·	·	12%	-0.1%
c1ccc(-n2nnnc2SCCCSc2nc3ccccc3s2)cc1	-2%	9%	-6%	·	1%	2%	-5%	-0.7%
Cc1cccc(OC(C)C(=O)Nc2nc(-c3ccncc3)cs2)c1 (stereo not given)	·	·	2%	-9%	?	?	3%	·
COc1ccc(/C=N/NC(=S)Nc2ccccc2)cc1	7%	·	1%	6%	21%	22%[46.1 µM]	-10%	·
CCN(CC)c1ccc(N=Cc2c(C)[nH]c3ccccc23)cc1	-7%	27%	-1%	-11%	-21%	?	-12%	1.2%
O=C(NCc1ccccc1)C1CCC(=O)N(CC2CCCCC2)C1 (stereo not given)	-1%	·	-2%	2%	·	·	4%	·
Cc1cc(C)c(NC(=O)Cn2c(=O)nc(-c3ccccc3)c3cc(Cl)ccc32)c(C)c1	·	-7%	·	-1%	7%[46.1 µM]	·	·	1.1%
CCOc1ccccc1CNC(=O)CCCC(=O)n1nc(C)c2ccccc21	?	·	1%	0%	·	·	26%	·
Cc1ccc(SCC(=O)Nc2ccc3oc(-c4cccc(C)c4)nc3c2)cc1	·	?	·	14%	?	-1%[46.1 µM]	·	-7.5%
CCN(CC)c1ccc(C(=O)OCC(=O)Nc2ccc3[nH]c(=O)[nH]c3c2)cc1	5%	·	-1%	-6%	?	?	10%	·
COc1cccc(C(=O)CC(=O)C(=O)Nc2cc(OC)ccc2OC)c1	4%	·	2%	-12%	?	-5%[46.1 µM]	6%	·
CN(c1ccc(C(=O)Nc2ccccc2C(=O)N2CCCC2)cc1)S(C)(=O)=O	-5%	-3%	·	-20%	-1%	0%	5%	7.1%
O=[N+]([O-])c1cc(S(=O)(=O)N2CCCC2)ccc1N/N=C/c1ccccn1	12%	13%	1%	-15%	6%	?	40%	-6.2%
CCOC(=O)N1CCN(CC(O)COc2ccccc2C(C)C)CC1 (stereo not given)	-15%	-3%	3%	?	8%	-11%	-5%	2.2%
CCCC12CN3CC(C)(CN(C1)C31C(=O)Nc3ccc(C)cc31)C2=O (stereo not given)	?	6%	3%	·	-2%	14%	3%	3.3%
CCOc1ccc2nc(NC(=O)c3cccn(Cc4ccc(Cl)cc4)c3=O)sc2c1	·	-1%	·	-11%	7%[46.1 µM]	·	·	0.3%
COc1ccccc1C(=O)NCC(=O)Nc1ccccc1	-3%	-4%	2%	8%	?	5%	19%	3.7%
CCC(=O)N(Cc1cc2ccc(C)cc2[nH]c1=O)c1ccccc1OC	?	·	3%	-18%	·	·	1%	·
COC(=O)Cn1c(Cc2ccccc2)nc2ccccc21	3%	·	-6%	-19%	29%[46.1 µM]	13%[46.1 µM]	3%	·
Cc1ccc(Cl)cc1N1CCN(C(=O)c2cnn(C)c2C2CCN(C(=O)OC(C)(C)C)CC2)CC1	·	15%	·	?	-22%[46.1 µM]	·	·	-9.4%
Cc1ncc(N=Nc2ccc(F)cc2)c(-c2ccc(Cl)cc2)n1	11%	2%	1%	-17%	3%	6%	-6%	-2.4%
CCN=C(N/N=C/c1ccc([N+](=O)[O-])cc1)SC	-3%	1%	-2%	24%	19%	22%	-15%	-2.5%
Cc1ccc(NS(=O)(=O)c2ccc(-c3cc(C)no3)cc2)c(C)c1	·	-7%	·	-27%	?	·	·	-9.9%
CCCCCC(O)(CCN1CCCCC1)c1ccccc1 (stereo not given)	1%	·	1%	-27%	·	·	-3%	·

Another view of 3 compounds above.
The line under a structure holds: NS1 inh | Cruzain inh noDet | SARS PLP yeast | 2A StopGo | Lassa entry inh | Marburg entry inh | RE007 growth inh | Cruzain Triton
Cc1ccc(NS(=O)(=O)c2ccc(-c3cc(C)no3)cc2)c(C)c1
    · | -7% | · | -27% | ? | · | · | -9.9%
COC(=O)Cn1c(Cc2ccccc2)nc2ccccc21
    3% | · | -6% | -19% | 29%[46.1 µM] | 13%[46.1 µM] | 3% | ·
CCN=C(N/N=C/c1ccc([N+](=O)[O-])cc1)SC
    -3% | 1% | -2% | 24% | 19% | 22% | -15% | -2.5%

(further entries)
SMILES	NS1 inh	Cruzain inh noDet	SARS PLP yeast	2A StopGo	Lassa entry inh	Marburg entry inh	RE007 growth inh	Cruzain Triton
O=C(COc1ccc2ccccc2c1)NNC(=O)c1ccc([N+](=O)[O-])cc1	3%	·	2%	5%	2%	17%[46.1 µM]	-18%	·
COCC(=O)Nc1cc(C(=O)Nc2ccccc2C)ccc1Cl	-15%	7%	-3%	·	7%	11%	-13%	-0.9%
CSc1nc(N(C)NC(=O)c2cccc(C)c2)c2ccccc2n1	-15%	13%	1%	-12%	-13%	?	8%	-0.8%
CCC1=C(OC(=O)N(CC)CC)N2C(=O)OC(=NCC3CC3)[C@]2(C)[C@H]2C1=CC[C@H]1C(=O)N(C)C(=O)[C@H]12	-3%	?	4%	-1%	·	·	-7%	3.8%
CCOC(=O)C1CCN(C(=O)COC(=O)CN(C)S(=O)(=O)c2ccc(NC(C)=O)cc2)CC1	·	·	·	-15%	0%	?	-8%	·
O=C(O)C1C(c2ccccc2)C(C(=O)Oc2ccc(O)cc2)C1c1ccccc1 (stereo not given)	12%	-11%	1%	19%	-13%	-26%	13%	-2.9%
Cc1cccc(OCc2nn[nH]n2)c1C	8%	·	3%	13%	16%[46.1 µM]	3%[46.1 µM]	3%	·
CCc1nnc2c(Nc3cccc(F)c3)nc3ccc(C(=O)c4ccccc4)cc3n12	·	6%	·	-5%	?	?	·	-1.8%
COc1ccc(C(=O)Nc2sc(C)c(C)c2CN2CCOCC2)cc1	-1%	-4%	3%	31%[activator]	10%	?	-1%	-6.3%
CCOCCCNc1nc2nc3ccc(C)cn3c(=O)c2cc1C(=O)NCC1CCCO1 (stereo not given)	11%	·	1%	-7%	-1%	12%[46.1 µM]	4%	·
CCOc1ccc(CCNC(=O)CCCc2nnc3n(CC)c(=O)c4sccc4n23)cc1	·	5%	·	0%	2%[46.1 µM]	·	·	-0.9%
CC(C)(C)c1ccc(C(=O)C2CCCN(C(=O)CN3CCCC3=O)C2)cc1 (stereo not given)	-2%	·	0%	7%	·	·	2%	·
CCOc1ccc(NC(=O)N(C(C)C)C2CCN(C(C)=O)CC2)cc1	·	4%	·	-17%	14%[46.1 µM]	·	·	0.8%
CC(=O)Nc1cccc(-c2nnc(SCc3ccccc3C#N)n2C)c1	5%	-5%	3%	17%	5%	4%	-4%	5.0%
O=c1cc(Nc2ccc3c(c2)OCCO3)[nH]c(=O)n1C1CCCCC1	3%	-7%	6%	27%	-12%	?	6%	-7.0%
Cc1nc2ccc(NC(=O)c3cc([N+](=O)[O-])cc([N+](=O)[O-])c3Cl)cc2s1	·	-12%	-106%	?	4%	?	·	-29%
Cc1ccc(C2(C)NC(=O)N(CC(=O)NCCC3=CCCCC3)C2=O)cc1 (stereo not given)	11µM*	-11%	9%	-9%	-15%	-12%[46.1 µM]	-11%	1.9%
CCC(Sc1ccccn1)C(=O)Nc1nnc(C)s1 (stereo not given)	4%	-1%	1%	10%	15%	?	3%	-0.8%
COc1ccc(C(=O)N2CCN(c3cccc(C)c3C)CC2)cc1S(=O)(=O)NC1CC1	·	·	1%	6%	-22%	?	8%	·
CC(=O)NNc1ncnc2c1cnn2-c1ccccc1	·	-6%	-6%	33%&-9%[activator]	4%	4%&4%[46.1 µM]	-2%	0.7%
COc1cccc(/C(O)=C/C(=O)C(=O)Nc2ccc(S(=O)(=O)NC(C)=O)cc2)c1	3%	-2%	-8%	-19%	-1%	?	-3%	-10%
